Mtb H37Rv: M. tuberculosis H37Rv growth inhibitors, H37Rv strain (AID 1626); M. tuberculosis H37Rv growth inhibition; higher % means a stronger effect; inhibition, % at 10 µM; hits with a dose series show IC50 in µM; hit rate 0.95% among 220,000;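 active = confirmed in a dose series; inconclusive = inhibition above 80% but not taken into the dose series; inactive = below 80% or under 30% at every dose of the series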;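 note: bacteria incubated seven days before Alamar blue readout; 0% = bacteria only wells and 100% = bacteria with antibiotic wells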
Arbovirus inh: blocks arbovirus infection; AID 1251; inhibition, % at 10 µM; arbovirus infection cell-based antiviral screen; hit rate 0.37% among 200,000;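 active = inhibition from about 30%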;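 note: bluetongue infection of BSR cells; cell survival read as ATP light after 72 h; 0% = infected wells without compound and 100% = uninfected wells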
RecA intein inh: Mtb RecA intein splicing inhibition. P9WHJ3. cell-free RecA intein splicing, fluorescence. inhibition, %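 (about 9 µM by stock and volumes)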. hit rate 0.75% among 290,000. AID 2221; in the data active = inhibition above about 30%; inconclusive = no clear call, values can overlap the other calls;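 note: 0% = vehicle wells and 100% = reference inhibitor control wells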
Target sequence (P9WHJ3 whole entry, looked up): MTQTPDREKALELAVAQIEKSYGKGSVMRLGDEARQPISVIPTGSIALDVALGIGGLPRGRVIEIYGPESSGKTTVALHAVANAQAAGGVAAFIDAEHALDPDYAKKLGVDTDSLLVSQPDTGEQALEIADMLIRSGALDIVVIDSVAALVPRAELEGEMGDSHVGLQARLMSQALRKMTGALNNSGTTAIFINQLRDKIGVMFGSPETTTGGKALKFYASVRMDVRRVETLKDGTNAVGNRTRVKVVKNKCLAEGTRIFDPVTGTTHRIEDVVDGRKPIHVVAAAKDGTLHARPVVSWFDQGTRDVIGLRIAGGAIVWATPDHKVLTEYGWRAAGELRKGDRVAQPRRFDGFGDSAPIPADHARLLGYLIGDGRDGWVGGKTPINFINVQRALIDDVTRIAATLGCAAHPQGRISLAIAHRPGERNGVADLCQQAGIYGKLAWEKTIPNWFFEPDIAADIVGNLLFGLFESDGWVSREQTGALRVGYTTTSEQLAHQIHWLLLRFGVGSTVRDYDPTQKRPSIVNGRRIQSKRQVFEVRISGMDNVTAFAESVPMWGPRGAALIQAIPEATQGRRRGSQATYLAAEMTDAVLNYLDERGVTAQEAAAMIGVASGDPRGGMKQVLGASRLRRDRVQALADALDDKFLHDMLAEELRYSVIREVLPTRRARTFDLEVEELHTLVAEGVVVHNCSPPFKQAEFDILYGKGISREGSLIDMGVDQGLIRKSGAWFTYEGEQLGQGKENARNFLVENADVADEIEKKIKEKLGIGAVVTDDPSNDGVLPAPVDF
Mtb bLac sens: beta-lactam sensitization of Mtb H37Rv; AID 434955; inhibition, % at 25 µM; M. tuberculosis H37Rv growth with meropenem, percent inhibition; hits of this screen are not shown here; hit rate 0.27% among 330,000;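 active = about 74% or more and at least 40 points above the plate without the antibiotic, then above 30% in a dose series; inconclusive = first-round hits that could not be retested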;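 note: growth measured after seven days incubation then overnight dye step; 0% = bacteria only wells and 100% = bacteria with antibiotic; twin plates without the antibiotic show which effects depend on it; some results filed as inactive read as strong as hits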
YopH inh: inhibitors of Yersinia enterocolitica YopH tyrosine phosphatase. hit rate 0.16% among 140,000. inhibition, %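 (about 10 µM by stock and volumes)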. AID 898. fluorescence Ex485/Em525;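 active = inhibition of 50% or more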;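 note: controls were vehicle for no effect and minimum signal wells for full effect; inactives centre near -20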
Arbovirus inh repeat: second read-out of Arbovirus inh, no call of its own (marks repeat the call); inhibition, %; measured here: 10K subset replicate screen; many hits read low in the repeat;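 first of two repeat runs on a subset; 0% = infected and 100% = uninfected wells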
* marks the source's active call; other numbers are inactive results; ? = inconclusive; / = not tested or not shown. This is a subset; the hit share may differ from the screen's.

SMILES	Mtb H37Rv	Arbovirus inh	RecA intein inh	Mtb bLac sens	YopH inh	others
O=C(CC12CC3CC(CC(Br)(C3)C1)C2)NCc1ccccc1	/	/	-0.3	5	/
COc1ccccc1CN1CC(C(=O)NCc2c(F)ccc(C)c2F)CCC1=O (centres undefined)	/	/	-1.4	7	/
N#Cc1c(-c2cccs2)nc(SCC(=O)c2ccc(Br)cc2)[nH]c1=O	9%	/	4.9	-7	/
O=C(NNC(=O)c1cc(O)c(O)c(O)c1)NC1CCCCC1	-5%	12	-3.3	-12	-53
Cc1sc(NC(=O)c2ccco2)c(CN2CCCCC2)c1C	-5%	8	1.9	-8	-22
COc1ccc(CNC(=O)N2CCN(S(=O)(=O)c3ccccc3F)CC2)cc1	/	/	-0.8	2	/
CCN(C(=O)COC(=O)c1ccco1)c1c(N)n(Cc2ccccc2)c(=O)[nH]c1=O	/	/	-3.8	-2	/
CC1(C)Cc2c(sc(NC(=O)c3ccc(C(=O)c4ccccc4)cc3)c2C(N)=O)C(C)(C)N1	/	/	4.6	?	/
COc1cc(CC(=O)NC(c2ccccc2)c2ccccc2)cc(OC)c1OC	/	/	-1.8	8	/
c1ccc(Oc2nc(-c3ccccn3)nc3ccccc23)cc1	2.7µM*	/	12	87	/
Cc1ccc(SCCC(=O)Nc2nccs2)cc1	11%	-2	0.1	0	/
NC(=O)CN1C(=O)C(=O)N(Cc2ccc(F)cc2)C1=O	/	/	0.1	3	/
CCOc1cc(/C=C2/SC(=S)N(CC3CCCO3)C2=O)ccc1O (centres undefined)	-12%	3	-1.1	5	/
C=CCOc1ccc(Br)cc1CNC(C)(C)C	0%	19	-1.9	9	/
CCOC(=O)CN1C(=O)S/C(=C/c2ccco2)C1=O	/	/	1.2	7	/
COc1ccccc1N1CCN(/N=C/c2ccccc2C(=O)O)CC1	/	/	-1.3	5	/
CC(NC(=O)c1ccc(F)cc1F)C1CC2CCC1C2 (centres undefined)	/	/	-2.3	6	/
CC1CCN(C(=O)C2CCN(S(=O)(=O)c3cccs3)CC2)CC1	/	/	-0.9	-2	/
NC(=O)Cn1cnc2nc3n(c2c1=O)CCC3	3%	2	-3.1	-9	/
COc1ccc(C(=O)/C=C/C(=O)N(CC(=O)NCCC(C)C)Cc2cccs2)c(O)c1	-11%	-8	4.4	/	/
Cc1cc(=O)[nH]c(-n2ncc(C#N)c2N)n1	3%	6	0.8	-3	/
O=C(NCc1ccccn1)C1CCCN(S(=O)(=O)c2ccc(Br)cc2)C1 (centres undefined)	4%	0	/	-3	-2
Clc1ccc(-c2csc(-c3ccncc3)n2)cc1	8%	10	2.5	85	/
Cc1[nH]c2ccccc2c1CC#N	/	/	-1.4	2	/

Of the compounds above, 5 contain an aryl methoxy group.
SMILES	Mtb H37Rv	Arbovirus inh	RecA intein inh	Mtb bLac sens	YopH inh	others
COc1ccccc1CN1CC(C(=O)NCc2c(F)ccc(C)c2F)CCC1=O (centres undefined)	/	/	-1.4	7	/
COc1ccc(CNC(=O)N2CCN(S(=O)(=O)c3ccccc3F)CC2)cc1	/	/	-0.8	2	/
COc1cc(CC(=O)NC(c2ccccc2)c2ccccc2)cc(OC)c1OC	/	/	-1.8	8	/
COc1ccccc1N1CCN(/N=C/c2ccccc2C(=O)O)CC1	/	/	-1.3	5	/
COc1ccc(C(=O)/C=C/C(=O)N(CC(=O)NCCC(C)C)Cc2cccs2)c(O)c1	-11%	-8	4.4	/	/

Next part
SMILES	Mtb H37Rv	Arbovirus inh	RecA intein inh	Mtb bLac sens	YopH inh	others
COc1ccc(CCNC(=O)C2CC(=O)N(CCc3ccc(C)cc3)C2)cc1OC (centres undefined)	6%	6	-5.9	-3	/
COc1ccccc1NC(=O)c1ccc[n+]([O-])c1	/	/	-0.7	7	/
Cc1ccc(N(CC(=O)NC2CCC(C)CC2)S(=O)(=O)c2cccnc2)cc1 (centres undefined)	-7%	-5	-0.4	-3	-24	Arbovirus inh repeat=0
Cc1cccc(NC(=O)CSCC(=O)Nc2cccc3ncccc23)c1	/	/	1.8	-6	/
O=C(O)CCC(=O)c1cccc2ccccc12	-12%	6	-4.3	0	-20
c1ccc(COc2ccc(-c3sc(Nc4ccccc4)n[n+]3-c3ccccc3)cc2)cc1	/	/	5.5	?	/
Cc1ccc(S(=O)(=O)N2CCCC2C(=O)Oc2ccccc2)cc1 (centres undefined)	-2%	16	3.1	-10	-38
Cc1ccc(Cn2c(=O)c3ccccc3n3nc(C)cc23)cc1	5%	-6	-1.3	13	/
COc1ccc(/C=C2/N=C(c3cccs3)OC2=O)cc1OC(C)C	39%	2	-6.1	100	-11
CCOc1cc(NC(=O)c2ccco2)c(OCC)cc1NC(=O)COc1ccccc1	9%	7	2.3	92	-19
COc1ccc(C(=O)NCc2ccc(Cl)c(Cl)c2)cc1OC	-5%	-30	-0.7	7	-20
CCn1c(CNc2cccc(Cl)c2)nnc1SCc1ccccc1	1%	-6	-1.1	1	-17
COCCNC(=O)/C(C#N)=C/c1c(N2CCN(c3ccccc3)CC2)nc2ccccn2c1=O	/	/	-14	-7	/
Cc1ccc(C(C)C)c(OCCCNCc2cccnc2)c1	10%	-15	0.4	2	/
CCOCCn1c(CCCO)nc2ccccc21	/	3	-0.4	-10	-52
CN1C=CC=C/C1=C1\SC(=S)N(c2ccccc2)C1=O	/	4	1.4	-1	-24
COc1ccc(N(CC(=O)Nc2ccc(C)c(C)c2)S(=O)(=O)c2c(C)noc2C)cc1	/	/	1.1	7	/
O=C(Nc1c2c(nn1-c1ccccc1)CS(=O)C2)c1ccc2c(c1)OCO2 (centres undefined)	/	/	0.5	-5	/
CC(C)(C)OC(=O)N1CCN(c2ccc(CNC(=O)c3ccc(Cl)cc3)cc2)CC1	-2%	15	7.7	0	-18
CCOC(=O)c1c(NC(=O)c2nn(CC)cc2Br)c(C#N)nn1-c1ccccc1	-4%	-1	1.2	3	52*
Cc1cccc(NC(=S)Nc2cccc(C)n2)n1	-4%	/	1.8	4	/
Cn1c(SCc2ccccc2Cl)nnc1-c1cnccn1	-7%	-4	-1.6	-18	-66	Arbovirus inh repeat=6
O=[N+]([O-])c1ccccc1NCc1ccc(Cl)cc1	-6%	-27	7.0	-3	-39
CN(Cc1ccco1)S(=O)(=O)c1nnc(NC(=O)c2ccc(F)cc2)s1	/	/	-3.3	20	/
CC1CCC(NC(=O)C2c3ccccc3C(=O)N2Cc2ccc3c(c2)OCO3)CC1 (centres undefined)	3%	0	-1.4	-14	/
O=[N+]([O-])c1ccc(N2CCCNCC2)c2ncccc12	10%	/	7.6	31	/
Cc1cc(NC(=O)CN2C(=O)NC(C)(c3ccccc3)C2=O)no1 (centres undefined)	0%	2	0.5	-10	-5
O=C(CCCNS(=O)(=O)c1cccc2nsnc12)NCc1ccccc1	0%	8	-2.4	3	-48
COc1ccc(S(=O)(=O)N(NC2=NS(=O)(=O)c3ccccc32)C(=O)C(C)C)cc1	-5%	7	-0.1	3	/
O=C(COC(=O)c1ccncc1)Nc1cccc(Cl)c1	3%	1	2.9	-1	19
CCn1c(C)cc(/C=C2\NC(=O)N(CC(=O)Nc3ccc(F)cc3)C2=O)c1C	-1%	-1	-0.8	-8	/
COC(=O)c1ccc(NC(=O)C2CC(=O)N(c3cc(C)ccc3C)C2)cc1 (centres undefined)	-2%	12	0.5	-6	-15
COc1cc(NC(=O)Cn2nnc(-c3ccccc3N)n2)cc(OC)c1	7%	-12	3.3	5	-3
Oc1ccccc1-c1nc(NCC2CCCO2)c2ccccc2n1 (centres undefined)	9%	-24	1.5	8	7
COc1cc(N/C(=N/S(=O)(=O)c2ccccc2)c2ccccc2)ncn1	-8%	6	-0.4	-3	-15
CC(C)c1ccc(CN(C(=O)c2ccco2)C2CCS(=O)(=O)C2)cc1 (centres undefined)	/	/	-1.3	0	/
COc1ccc(CNC(=O)CSc2nnc3c(n2)[nH]c2ccc(F)cc23)cc1	/	/	-1.0	0	/
COc1ccc(C2=CSC3=NCCN23)cc1F	7%	-5	-3.7	23	-47
COC(=O)c1ccc(N2C(=O)CC(N(C)Cc3ccccc3)C2=O)cc1 (centres undefined)	-7%	4	1.4	1	-26
COc1ccc(C)cc1NC(=O)CN(c1ccccc1F)S(C)(=O)=O	/	-4	-3.1	-3	-1	Arbovirus inh repeat=-3
COCCn1cnc2c1c(=O)n(CC(=O)c1ccc3c(c1)OCCO3)c(=O)n2Cc1ccccc1	-3%	/	0.2	-1	/
Cc1ccc(S(=O)(=O)Cn2nnnc2C(C(C)C)N2CCC(C(N)=O)CC2)cc1 (centres undefined)	/	/	1.0	5	/
O=C(COc1ccc(S(=O)(=O)Nc2ccccc2)cc1)NCc1ccncc1	11%	2	0.3	-1	/
CN(Cc1cn(C)nc1-c1ccccc1F)CC1CCN(Cc2ccccc2)CC1	-3%	/	-0.7	-2	/
CCCCn1c(N)c(N(CCOC)C(=O)COC(=O)C(C)Oc2ccc(Cl)cc2)c(=O)[nH]c1=O (centres undefined)	/	/	0.5	-3	/
CCNC(=S)N1CCn2c(nc3ccccc32)C1	-3%	2	1.3	3	-26
Cn1c(=O)c2c(SCC(=O)N3CCOCC3)nc(C3CCCCC3)nc2n(C)c1=O	-6%	-12	-3.2	2	/
COC(=O)c1cc(C(=O)OC)n(Cc2ccc(Br)cc2)n1	0%	-3	-0.5	1	-12
Cc1ccc(N(C)S(=O)(=O)c2cc3c(cc2C)NC(=O)CO3)cc1	/	/	1.7	0	/
O=S(=O)(/N=C(/Nc1cc(N2CCOCC2)ncn1)c1ccc(F)cc1)c1ccccc1	-1%	-6	0.3	-1	3
Cc1ccc(-c2nnc(NC(=O)c3ccco3)s2)cc1	/	/	-3.5	-4	/
COc1cc(CNCCc2ccc(S(N)(=O)=O)cc2)ccc1OCC(=O)NC(C)(C)C	-1%	1	1.2	-12	-9

3 entries from above, ordered by count of non-hydrogen atoms, lowest first.
SMILES	Mtb H37Rv	Arbovirus inh	RecA intein inh	Mtb bLac sens	YopH inh	others
Cc1ccc(-c2nnc(NC(=O)c3ccco3)s2)cc1	/	/	-3.5	-4	/
Cc1ccc(N(C)S(=O)(=O)c2cc3c(cc2C)NC(=O)CO3)cc1	/	/	1.7	0	/
COc1cc(CNCCc2ccc(S(N)(=O)=O)cc2)ccc1OCC(=O)NC(C)(C)C	-1%	1	1.2	-12	-9
